Vif A3G: inhibitors of Vif binding to APOBEC3G peptide, primary screen, biochemical, TR-FRET, GST-Vif 1-94, biotin-A3G peptide, dose response retest (AID 1117319). TR-FRET GST-Vif / biotin-A3G peptide binding; higher % means a stronger effect; test concentration not given here; strong numbers were not always called active. inhibition, %, or IC50 in µM where a hit was titrated. actives 0.57% (n = 260,000). Virion infectivity factor (Human immunodeficiency virus type 1 group M subtype B (isolate …;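 active = above the screen mean plus three standard deviations and confirmed in dose response; inconclusive = results disagree or hit not tested in dose response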;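 note: Vif residues 1-94 fused to GST binding biotinylated APOBEC3G peptide 110-148; 0% = full assay without inhibitor and 100% = GST in place of GST-Vif; retest series ran down from 100 µM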
FGF22 binding: binders of human FGF22 protein, primary screen, FGF22 synaptogenesis inhibitor project, biophysical, thermal shift, single point; calls only at 9.99 µM; actives 1.5% (n = 340,000); recombinant FGF22 thermal shift, SYPRO orange fluorescence; percent of sucrose octasulfate shift, DMSO zero;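 active = melting point raised past a set limit in the mean and every replicate; inconclusive = no clear call; three in four hits are not shown here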
Target sequence (Q9HCT0 whole entry, looked up): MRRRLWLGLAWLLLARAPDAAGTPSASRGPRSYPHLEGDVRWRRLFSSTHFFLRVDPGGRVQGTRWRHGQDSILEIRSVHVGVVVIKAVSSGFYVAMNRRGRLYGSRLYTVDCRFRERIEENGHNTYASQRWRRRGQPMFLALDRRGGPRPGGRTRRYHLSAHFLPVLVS
MLL AF4-AF9 inh: inhibitors of AF4 peptide binding to AF9, primary screen, biochemical, AlphaScreen, biotin-AF4 peptide, FLAG-AF9, single point; inhibition, % at 10 µM; actives 0.47% (n = 350,000);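 active = every replicate reaching a set inhibition limit, whatever the replicate mean, cut at about 25% in these data; inconclusive = mean inhibition reaches that limit but some replicates miss it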;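 note: 0% = plate neutral control median and 100% = total signal loss; the record names both 10 and 1 µM as test concentration; the first replicate is given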
Target sequence (P42568 whole entry, looked up): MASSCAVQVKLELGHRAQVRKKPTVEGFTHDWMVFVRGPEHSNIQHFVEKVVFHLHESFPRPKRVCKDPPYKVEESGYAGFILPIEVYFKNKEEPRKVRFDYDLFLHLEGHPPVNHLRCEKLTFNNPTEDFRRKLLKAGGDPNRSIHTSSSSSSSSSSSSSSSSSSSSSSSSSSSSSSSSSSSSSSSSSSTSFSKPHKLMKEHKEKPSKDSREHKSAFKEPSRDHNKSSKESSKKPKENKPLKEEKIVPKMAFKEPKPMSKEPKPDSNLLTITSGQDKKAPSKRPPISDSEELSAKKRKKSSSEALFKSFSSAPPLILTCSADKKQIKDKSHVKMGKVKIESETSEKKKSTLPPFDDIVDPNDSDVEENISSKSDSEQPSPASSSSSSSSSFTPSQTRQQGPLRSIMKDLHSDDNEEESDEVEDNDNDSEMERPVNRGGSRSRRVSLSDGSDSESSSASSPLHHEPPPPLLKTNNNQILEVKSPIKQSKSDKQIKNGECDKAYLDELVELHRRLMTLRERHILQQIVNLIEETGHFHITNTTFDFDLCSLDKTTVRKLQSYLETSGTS
UCH37 DUB inh: inhibitors of human UCH37 deubiquitinase, primary screen, biochemical, Ub-AMC cleavage, fluorescence. inhibition, % (concentration not given with the values). actives 0.33% (n = 330,000). purified proteasome/UCH37. AID 588478, 2011. Ubiquitin carboxyl-terminal hydrolase isozyme L5 (Homo sapiens), Q9Y5K5;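 active = mean of two replicates above 20%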;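 note: 0% = compound-free wells with enzyme and 100% = wells lacking proteasome; stock transfer was 100 nL into about 20 µL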
Target sequence (Q9Y5K5 whole entry, looked up): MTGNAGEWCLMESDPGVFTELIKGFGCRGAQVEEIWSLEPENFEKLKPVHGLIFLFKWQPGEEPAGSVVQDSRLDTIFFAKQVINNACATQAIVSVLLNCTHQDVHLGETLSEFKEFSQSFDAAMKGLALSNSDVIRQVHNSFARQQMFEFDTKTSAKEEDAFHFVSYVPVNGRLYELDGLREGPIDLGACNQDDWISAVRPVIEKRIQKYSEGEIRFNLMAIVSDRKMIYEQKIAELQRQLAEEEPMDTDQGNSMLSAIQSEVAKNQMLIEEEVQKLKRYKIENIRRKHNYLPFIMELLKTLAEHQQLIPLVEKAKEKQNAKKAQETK
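Reagent: Ub-AMC substrate; assay system: Proteasome-associated human UCH37 deubiquitinase; controls: no-proteasome and no-compound wells; read-out: % inhibition of Ub-AMC cleavage fluorescence; timing: 30 min preincubation with enzyme, 25 min cleavage at room temperature; signal: AMC fluorescence from Ub-AMC cleavage, excitation 355 nm, emission 460 nm; buffer or medium: Tris-HCl pH 7.4 plus ovalbumin, ATP-MgCl2, DTT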
Ecoli growth: E. coli growth inhibition, primary screen, OD600. Escherichia coli growth, 23 h; hits give low values. OD600 absorbance (no concentration beside the values). actives 0.21% (n = 330,000). AID 1053175, 2014;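 active = OD600 absorbance below the run mean of sample wells minus 3.6 SD, in any replicate, cut at about 0.56 in these data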;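 note: stock transfer was 300 nL into about 60 µL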
RanGTP-Impb inh: inhibitors of RanGTP-importin-beta interaction, primary screen, biochemical, FRET, CFP-Ran, YFP-importin-beta, homogeneous | AID 2216, 2009 | cell-free CFP-Ran/YFP-importin-beta FRET ratio | inhibition, % (no concentration beside the values) | actives 1.1% (n = 300,000);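 active = most replicates above 15%; inconclusive = exactly half above 15%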;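 note: 0% = DMSO wells and 100% = Ran loaded with GDP instead of GTP; wells of about 40 µL received 100 nL stock; the first replicate is given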
HNF4A DNA FP: change in binding of human HNF4A to DNA, primary screen, biochemical, fluorescence polarization, FITC-DNA | Hepatocyte nuclear factor 4-alpha (Homo sapiens), P41235 | 1 h | activity change, % at 10 µM | actives 0.3% (n = 360,000) | AID 1224865, 2016; in the data active = activity change above about 30%, passing the limit was not always enough;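 note: controls were the assay level and a saturating level of protein; the project sought stronger binding though the title names inhibitors; some compounds called inactive have numbers as strong as hits; positive values seem to mean higher polarization but the record does not say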
Numbers without * were called inactive; i = inactive; u = inconclusive; x = no result given; & = joins results of further samples.

SMILES	Vif A3G	FGF22 binding	MLL AF4-AF9 inh	UCH37 DUB inh	Ecoli growth	RanGTP-Impb inh	HNF4A DNA FP
Cc1cc(NC(=O)C(C)SCC(=O)N(C)CC(=O)Nc2ccc(Br)cc2C)no1 (stereo not drawn)	x	i	-3.2	0.6	0.72	-2.1	-1.0
CCN(CC)C(=O)Cn1cc(C(=O)C(=O)NCCc2ccc(S(N)(=O)=O)cc2)c2ccccc21	6%	x	-0.5	2.4	0.68	-1.5	1.9
CCCCCCCN1CCN=C1Nc1ccccc1	x	i	-0.2	4.4	0.71	x	3.2
CCOC(=O)N/N=C/c1ccc(OC)c(O)c1	x	i	-0.5	x	x	3.0	-0.6
COc1ccc(C(=O)Nc2ccc(S(=O)(=O)N3CCc4ccccc43)cc2)cc1	-4%	x	x	3.7	0.69	0.3	1.6
CN(CCNC(=O)c1cc2c(-c3ccccc3F)nn(C)c2s1)C1CCCCC1	-6%	i	9.0	-46	0.64	1.2	1.4
Cc1ccccc1NC(=O)COC(=O)Cc1ccsc1	17%	i	5.2	1.0	0.7	4.4	-6.0
Cc1ccc(-n2c(N)c(C(=O)N3CCOCC3)sc2=S)c(C)c1	-4%	x	x	12	0.69	1.7	4.9
CCOC(=O)c1cnc(SCC(=O)Nc2ccc(NC(C)=O)c(OC)c2)nc1N	20%	x	x	1.1	0.69	u	0.6
COc1ccc(S(=O)(=O)N(C)C[C@H]2Oc3c(NC(=O)c4ccncc4)cccc3C(=O)N([C@H](C)CO)C[C@@H]2C)cc1	x	i	-1.4	3.0	x	x	1.6
CCCn1c(NC(=O)c2ccc(F)cc2)nc2ccccc21	-10%	i	1.3	x	x	-9.1	-2.5
O=C(CSC(=S)N1CCCC1)NCC(=O)Nc1ccc(F)c(F)c1	x	i	-1.2	-0.5	0.7	3.0	3.5

Looked up by compound from the entries so far (2):
SMILES	Vif A3G	FGF22 binding	MLL AF4-AF9 inh	UCH37 DUB inh	Ecoli growth	RanGTP-Impb inh	HNF4A DNA FP
CCOC(=O)N/N=C/c1ccc(OC)c(O)c1	x	i	-0.5	x	x	3.0	-0.6
CCCn1c(NC(=O)c2ccc(F)cc2)nc2ccccc21	-10%	i	1.3	x	x	-9.1	-2.5

New compounds follow.
SMILES	Vif A3G	FGF22 binding	MLL AF4-AF9 inh	UCH37 DUB inh	Ecoli growth	RanGTP-Impb inh	HNF4A DNA FP
O=C(Nc1ccc(Cl)cc1)N(C1=NCCC1)c1ccc(OC(F)F)cc1	u	x	x	2.3	0.62	0.9	-3.1
COc1ccc(C(=O)NCC(c2ccc(F)cc2)N2CCOCC2)cc1S(=O)(=O)N1CCCC1 (stereo not drawn)	2%&-4%	x	x	4.8	0.68	-2.3	3.6
COc1ccc(Cn2nc(-c3ccccc3)c(N3CCCCC3)cc2=O)cc1	x	x	6.2	3.2	0.74	0.5	-5.1
COC(=O)c1ccc(C2c3[nH]c4ccccc4c3C[C@H]3C(=O)N(C4CC4)CC(=O)N23)cc1 (stereo partly drawn)	x	i	1.2	4.3	0.68	-1.8	3.0
O=C(NCCCO)c1ccc2[nH]c3ccccc3c2c1	-1%	x	x	-11	0.65	2.6	2.2
O=C(COC(=O)c1cc[n+]([O-])cc1)Nc1ccc([N+](=O)[O-])cc1C(F)(F)F	0%	i	-4.8	-1.4	0.66	x	-0.3
O=C(CC[C@H]1O[C@@H](n2cnc3c(NC(=O)c4ccccc4)ncnc32)[C@H](O)[C@@H]1O)NCc1ccc(OC(F)(F)F)cc1	x	i	-3.4	x	x	x	-1.4
CCOC(=O)C1CCN(C(=O)CN(c2ccc(Oc3ccccc3)cc2)S(C)(=O)=O)CC1	-5%	i	-3.4	0.4	0.68	0.6	0.8
O=C(CN1C(=O)CCC1=O)Nc1cccc(NC(=O)CN2C(=O)CCC2=O)c1	x	i	-1.0	2.5	0.68	-8.6	4.9
CCOC(=O)C1=NOC(CNc2ncc(C(F)(F)F)cc2Cl)C1 (stereo not drawn)	-5%	i	-2.8	1.5	0.68	4.3	-0.9
COc1cccc(N2CCN(C(=O)C3C4C=CC5(CN(Cc6ccccc6Cl)C(=O)C35)O4)CC2)c1 (stereo not drawn)	-5%&-2%	x	x	3.0	0.75	-2.5	3.8
Cc1ccccc1CS(=O)(=O)c1nnc([C@H](CC(C)C)NC(=O)OC(C)(C)C)o1	-4%&9%	i	2.2	-0.6	0.73	-3.9	1.9
CC(=O)c1cccc(NC(=O)CCC(=O)Oc2ccc(C)cc2)c1	-6%	i	-2.5	1.0	0.68	2.2	-0.1
O=C(CN(c1ccc(F)cc1)S(=O)(=O)c1ccc2c(c1)OCCO2)NCC1CCCO1 (stereo not drawn)	-2%	x	x	1.9	0.66	1.9	0.4
Cc1ccc(Nc2nnc(-c3ccncc3)s2)c(Br)c1	x	i	-2.7	-15	0.67	6.5	-0.9
O=C(NCc1ccc(Cl)cc1)c1cc(-c2ccco2)on1	-4%	x	x	0.1	0.66	5.8	4.0
CCOc1ccc(-c2nnc3sc(COc4ccc(C)cc4)nn23)cc1	2%	x	x	4.0	0.73	-0.6	-1.1
CCOc1cc(C(F)(F)F)cnc1/C(N)=N/O	x	i	2.5	1.8	0.65	0.8	-1.1
O=C(Nc1cccc(Br)c1)c1ccc(CSc2ccccc2)cc1	10%	i	-18	0.1	0.69	2.7	-0.7
N#Cc1ccc(-c2ccc(OCC(=O)Nc3cccnc3)cc2)cc1	x	i	-2.0	-1.8	0.71	-1.2	-2.8
CC(=O)N1N=C(c2ccccc2)CC1c1ccccc1[N+](=O)[O-] (stereo not drawn)	x	x	x	3.1	0.67	2.1	0.5
O=C(c1cccc(S(=O)(=O)N2CCc3ccccc32)c1)N1CCN(CCO)CC1	-5%	i	1.1	-1.8	0.66	x	0.6
COc1cc(-c2noc(CCCC(=O)Nc3ccc(C(N)=O)cc3)n2)cc(OC)c1OC	-4%	i	0.3	2.5	0.63	4.5	1.3
Cc1cc(/C=N/NC(=O)c2ccccc2F)c(C)n1-c1ccccc1	-1%	x	9.0	x	x	-2.2	2.4
CCCS(=O)(=O)NC(=O)C1(C)CCCN(C(=O)c2oc3ccccc3c2C)C1 (stereo not drawn)	x	i	-1.2	x	x	x	-1.6
COc1cc(/C=N/NC(=O)c2cccnc2)cc(Br)c1O	10%	i	-0.7	x	x	-5.3	-6.4
O=C(c1ccc([N+](=O)[O-])cc1)N1CCN(C(=O)c2ccco2)CC1	10%	i	-6.9	-1.0	0.71	3.8	0.5
CCOc1ccc(-c2n[nH]c(=S)n2Cc2ccccc2)cc1	x	i	-0.3	1.3	0.7	-0.8	7.5
Cc1c(Cl)cnc(NC(=O)COC(=O)CCc2nc3ccccc3s2)c1Cl	x	i	-2.5	1.7	0.69	-0.3	-0.1
Cc1nnc(SCC(=O)NC2CCCCC2)[nH]c1=O	x	i	u	1.9	0.7	0.7	2.1
O=C(NCC(c1cccs1)N1CCOCC1)c1ccccc1NS(=O)(=O)c1cccc([N+](=O)[O-])c1 (stereo not drawn)	18%	i	-1.8	2.0	0.69	-1.1	0.2
O=C(OCc1ccc(O)cc1)c1c(-c2ccsc2)oc2ccc(N3CCOCC3)cc12	x	i	-4.5	-1.0	0.71	9.1	1.6
O=C(OCC(=O)N(CCc1ccccc1)Cc1ccccc1)c1ccccc1NCCO	x	i	-4.0	-294	0.72	3.4	0.6
COC(=O)c1ccccc1Oc1cc(C(F)(F)F)nc(-c2ccccn2)n1	x	i	-2.0	3.7	0.66	3.0	-1.5
COc1ccc(C2CC(c3ccccc3)=NN2c2ccc(S(N)(=O)=O)cc2)cc1 (stereo not drawn)	0%	i	-18	i	0.64	4.2	-2.5
O=C(CNC(=O)c1ccc(F)cc1)N/N=C/c1cc(Br)ccc1OC(=O)/C=C/c1ccco1	29%	i	0.8	x	x	2.8	-3.1
COc1cccc(NC(=O)CN(C)C(=O)c2ccc(NC(=O)CC3SC(N4CCCCC4)=NC3=O)cc2)c1 (stereo not drawn)	-2%	i	-7.5	-0.8	0.67	3.2	6.3
Cc1ccccc1-n1c(=O)c2ccccc2n2c(=O)[nH]nc12	-8%	x	x	-0.4	0.7	-2.1	4.9
CCc1n[nH]c2c1/C(=N\O)CC(c1ccccc1)C2 (stereo not drawn)	-7%	x	x	x	x	1.4	-1.2
COc1cc(/C=C/c2nc3ccccc3s2)cc(OC)c1O	22%	i	8.0	-44	0.71	-3.5	10
COc1ccccc1C(=O)C1CCCN(Cc2cn[nH]c2C2CCCCC2)C1 (stereo not drawn)	u	i	3.6	2.1	0.7	-2.2	-3.4
Cc1ccc(NC(=O)COS(=O)c2ccc(C)cc2)cc1 (stereo not drawn)	1%	x	x	1.2	0.69	0.9	-0.9
COc1ccc(NC(=O)CN(C)C(=O)c2cn(-c3ccccc3)nc2-c2cccs2)cc1	-6%	i	0.9	-2.2	0.65	-0.7	1.7
Cc1ccc(CN(CC(=O)N/N=C/c2ccccc2[N+](=O)[O-])S(=O)(=O)c2ccc(C)cc2)cc1	-4%	x	x	x	x	4.1	-2.2
O=c1[nH]c2ccccc2n2c(-c3ccccc3)nnc12	16µM*	x	x	4.7	0.71	1.3	0.6
C=CCNc1nc(N)c(C(=O)c2ccc3c(c2)OCO3)s1	12%	x	x	14	0.76	x	2.5
COc1ccc(C(=O)NCCS(=O)(=O)NCc2ccc3c(c2)OCO3)cc1	-3%	i	0.0	1.7	0.68	-4.9	2.0
CCCCCc1c(-c2ccccc2)ncn1CCc1ccccc1OC	x	i	3.2	x	x	x	-0.1

Limited to Vif A3G, for some of the entries so far:
mol	Vif A3G
COc1ccc(NC(=O)CN(C)C(=O)c2cn(-c3ccccc3)nc2-c2cccs2)cc1	-6%
Cc1ccc(CN(CC(=O)N/N=C/c2ccccc2[N+](=O)[O-])S(=O)(=O)c2ccc(C)cc2)cc1	-4%
O=c1[nH]c2ccccc2n2c(-c3ccccc3)nnc12	16µM*
C=CCNc1nc(N)c(C(=O)c2ccc3c(c2)OCO3)s1	12%

Next entries:
SMILES	Vif A3G	FGF22 binding	MLL AF4-AF9 inh	UCH37 DUB inh	Ecoli growth	RanGTP-Impb inh	HNF4A DNA FP
CCN(c1ccc(NC(=O)CSc2nnc3nc(C)cc(C)n23)cc1)C(C)C	14%	x	x	-1.0	0.74	2.1	-2.0
O=C(NCCCN1CCOCC1)c1ccc2c(=O)n(-c3ccc(F)c(Cl)c3)c(=S)[nH]c2c1	-6%	i	2.6	1.6	0.68	-3.0	7.2
Cc1ccc(/C=C/S(=O)(=O)NCC(=O)OCC(=O)N2CC(=O)Nc3ccccc32)cc1	x	i	3.3	-0.3	0.67	4.4	-3.2
CCCC#Cc1ccc2c(c1)O[C@H](CN(C)C(=O)CC1CC1)[C@H](C)CN([C@@H](C)CO)S2(=O)=O	-3%	i	0.3&-1.1&0.2	x	x	x	-0.4
CCSc1nnc(-c2ccccc2N=Cc2c(C)[nH]n(-c3ccccc3)c2=O)c(=O)[nH]1	-4%	i	0.5	12	0.64	-2.4	2.5
O=C(N[C@H]1C/C=C\C(c2ccc(F)cc2)N(Cc2ccccc2)C(=O)C1)OCC1c2ccccc2-c2ccccc21 (stereo partly drawn)	-2%	i	9.6	7.4	0.75	x	-0.7
O=C(N1CCC(n2nc(-c3ccccc3)oc2=O)CC1)C1(c2ccccc2)CC1	x	x	x	2.8	0.64	3.3	1.2
COc1ccc(-n2c(SCC(=O)O)nnc2-c2ccc(NC(=O)c3ccccc3)cc2)cc1	0%	i	-8.7	4.5	0.67	1.6	0.0

Screening data (PubChem BioAssay)

Some of the compounds tested; count on the stated rates, not on these rows.
